From PubChem
NPYLR7 ag: mosquito NPYLR7 agonism. HEK293T NPYLR7/Galpha15, GCaMP6s calcium fluorescence. activation, % at 10 µM. actives 0.15% (n = 270,000). AID 1259423; in the data active = activation above about 40%;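 note: 0% = vehicle and 100% = reference agonist at the receptor; some compounds past the cut are filed as inactive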
NPYLR7 ag max-min: further read-out of NPYLR7 ag, marked with its call; activation, %; measured here: Max-Min RFU normalised activation; some inactives read as strong as hits;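 span of the calcium signal over five minutes; 0% = vehicle and 100% = native peptide agonist; compound fluorescence can raise it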
Numbers without * were called inactive; & = joins results of further samples. An excerpt (hit frequency here may not be typical).

| compound | NPYLR7 ag | NPYLR7 ag max-min |
| --- | --- | --- |
| COc1ccc(NC(=O)CSc2nc3c(-c4ccccc4)c[nH]c3c(=O)n2C)c(OC)c1 | -1 | -6 |
| Cc1ccc(Sc2ncccc2C(=O)OC(C)C(N)=O)c(C)c1 (centres undefined) | 3 | 700 |
| Cc1cccc2c1NC1(CCN(C(=O)c3cccs3)CC1)NC2=O | 1 | 6 |
| CCc1nnc(CN2CCCc3c(F)ccc(F)c32)o1 | -2 | -5 |
| COc1ccc(CCC2CCN(C(=O)c3ccc(=O)[nH]c3)CC2)cc1 | 4 | 2 |
| O=C1OCCN1CCSc1n[nH]c(C2CCCC2)n1 | -7 | -7 |
| CCCCCCCCCCCCOS(=O)(=O)O | -21 | -30 |
| O=C1c2ccccc2C(=O)N1CCc1c[nH]c2ccccc12 | -6 | -11 |
| COc1cccc2sc(N(CC3CCCO3)C(=O)C3CC3)nc12 (centres undefined) | -2 | -3 |
| O=C(NCc1cccnc1Oc1ccccc1)c1cccc2nccnc12 | -1 | -1 |
| COc1ccc(CN(CC(O)COc2ccc(Cl)cc2)CC2CCCO2)cc1 (centres undefined) | 17 | 14 |
| Cc1cc(C)cc(-c2ccc(-n3cncc3C(=O)NC[C@H]3CCCO3)cc2)c1 | 3 | -2 |
| Cc1nc(-c2coc3c(O)c(O)ccc3c2=O)cs1 | 3 | 2 |
| Cn1c(CN2C[C@H](O)C[C@H]2c2nc(-c3ccncc3)no2)nc2ccccc21 | -6 | -14 |
| O=C(c1c(F)cc(F)cc1F)N1CCc2c(sc3[nH]c(=O)n(Cc4ccco4)c(=O)c23)C1 | 5 | 2 |
| CC(=O)Nc1cccc(NC(=O)c2cc(C)on2)c1 | 3 | 3 |
| CCc1cccc2sc(N(Cc3ccccn3)C(=O)c3ccc(C#N)cc3)nc12 | -3 | -6 |
| Cc1cccc(C(=O)NC(C(=O)N2CCOCC2)C2CCN(S(=O)(=O)C(C)C)CC2)c1 (centres undefined) | 0 | 7 |
| CCOC(=O)C1(Cc2ccccc2C(F)(F)F)CCN(C(=O)c2ccncc2)CC1 | 8 | 10 |
| Cc1ccc(C2(O)CCN(C(=O)c3c[nH]c4c(C)cccc4c3=O)CC2)nc1 | 10 | -3 |
| Cc1ccc(C(N)=O)c(N2CC[C@@H](c3ccc4ccccc4c3)[C@H](O)C2)n1 | -1 | -5 |
| COc1cccc(CN(CC2CC(c3ccc4c(c3)OCO4)=NO2)CC(O)c2ccccc2)c1 (centres undefined) | -1 | 7 |
| CCC1C(=O)NCCN1Cc1nc(-c2ccccc2OC)oc1C (centres undefined) | -6 | -12 |
| CCC(C(=O)Nc1ccccc1C1SCC(=O)N1c1ccc(F)cc1F)c1ccccc1 (centres undefined) | 2 | 13 |
| Cc1cccc(Cn2nc(-c3ccccc3C)ccc2=O)c1 | 9 | 5 |
| CC(=O)N1CCCN(C(=O)CN2CCc3sccc3C2c2cccc(F)c2)CC1 (centres undefined) | 14 | 3 |
| CCN(CC)S(=O)(=O)c1cc([N+](=O)[O-])ccc1NN=C1C=C(C)CC1 | -7 | 6 |
| COC(=O)C1=C(C)NC2=C(C(=O)CC(c3ccc(OC)cc3)C2)C1c1cccc(F)c1 (centres undefined) | -3 | -10 |
| O=C(CCc1cc2c(n1-c1ccc(Cl)cc1)-c1ccccc1OC2)NCC1CCCO1 (centres undefined) | -2 | -2 |
| O=c1c2ccsc2ncn1Cc1nc(-c2cccs2)no1 | 3 | 3 |

Next section; it opens with the 4 that closed the last part.
| compound | NPYLR7 ag | NPYLR7 ag max-min |
| --- | --- | --- |
| CCN(CC)S(=O)(=O)c1cc([N+](=O)[O-])ccc1NN=C1C=C(C)CC1 | -7 | 6 |
| COC(=O)C1=C(C)NC2=C(C(=O)CC(c3ccc(OC)cc3)C2)C1c1cccc(F)c1 (centres undefined) | -3 | -10 |
| O=C(CCc1cc2c(n1-c1ccc(Cl)cc1)-c1ccccc1OC2)NCC1CCCO1 (centres undefined) | -2 | -2 |
| O=c1c2ccsc2ncn1Cc1nc(-c2cccs2)no1 | 3 | 3 |
| C=CCN(CC(=O)N1CCc2sccc2C1c1ccccc1)S(=O)(=O)c1ccc([N+](=O)[O-])cc1 (centres undefined) | 0 | 17 |
| O=S(=O)(NCc1ccccc1Cl)c1ccccc1 | 0 | 1 |
| Cc1cc(C)c(-c2csc(N)n2)c(C)c1 | 0 | 1 |
| Cc1ccc2c(c1)c(C1CCN(S(=O)(=O)c3cccc(-c4ccccc4)c3)CC1)cn2C | 6 | 8 |
| O=C(c1cncc(N2CC(c3cccnc3)C2)n1)N1CCOCC1 | 18 | 2 |
| C/C=C/C(=O)N[C@H](Cc1ccccc1)C(=O)N1CCC(C(=O)Nc2ccc(OC)cc2)CC1 | 22 | 24 |
| COc1cccc2c1OCCCN(Cc1nc(-c3ccc(OC)c(OC)c3OC)no1)C2 | 7 | 1 |
| O=C(CCSc1ccc2c(c1)OCCO2)NCCN1CCCOC1=O | -3 | -5 |
| CCNC(=O)[C@@H]1C[C@H](N)CN1C(=O)Cc1ccccn1 | 3 | 1 |
| CC(C)(C)OC(=O)N1CCc2cc(NC(=O)C(=O)NC3CC3)ccc21 | 2 | 2 |
| CCOC(=O)c1nc2ccccc2nc1N1CCCN(C(=O)c2cnc3c(c(C)nn3C)c2Cl)CC1 | 4 | 1 |
| COC(=O)c1ccc2oc(=O)n(C3CCN(C(=O)c4ccc(F)c(F)c4)CC3)c2c1 | 1 | -5 |
| O=C(Nc1cccc(C2SCC(=O)N2c2ccc3c(c2)OCO3)c1)C(Cl)c1ccccc1 (centres undefined) | 0 | 4 |
| O=C1NCC2(CCCN(C(=O)c3ccccc3N3CCOCC3)CC2)O1 (centres undefined) | 8 | 6 |
| OC(c1ccc(CN2CCCC2)cc1)c1ncc(-c2ccccc2)[nH]1 (centres undefined) | 1 | -1 |
| COCCn1c(C)csc1=Nc1cccnc1 | -1 | -4 |
| CCOC(=O)C1CCCN(C(=O)CC(c2ccccc2C(F)(F)F)c2c[nH]c3c(CC)cccc23)C1 (centres undefined) | -1 | 2 |
| CCCCN=C(C)C1=C(O)c2ccccc2C1=O | -3 | 40 |
| O=C(NC1CCN(c2ccc(Cl)cc2)C1=O)c1csnn1 (centres undefined) | -5 | -5 |
| CC(C)CCNC(=O)c1cc(-c2ccccc2F)nc2cc(-c3ccccc3)nn12 | 4 | 3 |
| Cc1ccc(Cc2nc(N3CCCN(C(=O)COCc4ccccc4)CC3)c3c(-c4cccnc4)noc3n2)cc1 | 13 | 3 |
| O=C(CN1C(=O)NC2(CCCC2)C1=O)NCc1ccc2c(c1)OCO2 | 22 | 12 |
| O=C(c1ccoc1)N1CCCN(C2CCC3(CCNCC3)CC2)CC1 | 12 | 7 |
| Cc1nn(-c2ccccc2)c2nc(Cc3ccccc3)nc(N3CCCN(C(=O)Nc4cccc(C(F)(F)F)c4)CC3)c12 | 0 | 4 |
| Cc1ccccc1C(=O)NCCn1nc(-c2ccc(F)cc2)ccc1=O | -4 | -1 |
| CC(=O)Oc1ccccc1N(C(C)=O)S(=O)(=O)c1cccc([N+](=O)[O-])c1 | -5 | -8 |
| Cc1c(C(=O)OCCOC(C)C)[nH]c2c1C(=O)CC(C)(C)C2 | 10 | 6 |
| Cc1ccc(CN2CC(C(=O)N3CC=C(c4ccccc4)CC3)CC2=O)cc1 (centres undefined) | -3 | -4 |
| CCOc1ccc(C(=O)Nc2c(N)nc(SCC(=O)NCCOC)[nH]c2=O)cc1 | 4 | 3 |
| Cc1ccc(-c2nnc(SCCCC(=O)N3CCN(C(=O)c4ccc(Cl)c(Cl)c4)C(C)C3)n2-c2ccccc2C)cc1 (centres undefined) | 5 | 16 |
| O=C(c1cc(-c2ccccc2Cl)nn1-c1ccc(Cl)cc1)N1CCC2(CC1)OCCO2 | 0 | 5 |
| C=C[n+]1ccn(-c2nc3ccccc3nc2NS(=O)(=O)c2ccc([N+](=O)[O-])cc2)c1 | 7 | 12 |
| CN(CCNS(C)(=O)=O)c1nc(-c2ccc(Cl)cc2)no1 | 0 | -9 |
| CCN(Cc1nc(COC)no1)C(=O)c1cccnc1N1CCOCC1 | 10 | 0 |
| CC1=C(c2ccc(NC(=O)C(C)(C)C)cc2)N2CCCN=C2S1 | 1&-22 | 0&-28 |
| COc1cc(=O)n(-c2ccccc2)nc1C(=O)NCC(OC)OC | 3 | 1 |
| CS(=O)c1ccc(OCC(=O)OCC(F)(F)C(F)(F)C(F)(F)C(F)F)c([N+](=O)[O-])c1 (centres undefined) | -17 | -25 |
| COc1cccc2c1OCCCN(Cc1cc(C#CCO)cs1)C2 | 5 | 2 |
| Cc1nc(SCc2ccc(C(=O)N3CCN(C)CC3)cc2)nc(N2CCN(c3ccccc3F)CC2)c1C | 0 | 16 |
| COC(=O)c1ccccc1S(=O)(=O)Nc1ccc(OC(F)F)c(Cl)c1 | 2 | 3 |
| CCOC(=O)C1CCN(c2cc(Oc3ccc(F)c(Cl)c3)ncn2)CC1 | -6 | -1 |
| COc1cccc(NC(=O)C2(C)CCN2C(=O)Cc2cc(F)ccc2F)c1 (centres undefined) | -2 | -3 |
| O=C(NC1CCCN(C(=O)c2ccco2)C1)c1cc(C2CC2)[nH]n1 (centres undefined) | -3 | -5 |
| O=C(CCN1CCCO1)N1CCOC(Cc2ccc(F)cc2)C1 (centres undefined) | -5 | -9 |
| O=C(NCCCO)c1ccc(CSc2nc3ccccc3c(=O)[nH]2)cc1 | -4 | -6 |
| OCc1ccc(-c2cccc(C(F)(F)F)n2)cc1 | 3 | 4 |
| O=C1c2ccccc2S(=O)(=O)N1CC(O)Cn1c2ccc(Br)cc2c2cc(Br)ccc21 (centres undefined) | -10 | -16 |
| CC(=O)N1CCC(NC(=O)c2cc3c(C)nn(-c4ccccc4)c3s2)CC1 | -16 | -15 |
| CN1CCC2(CC1)CN(Cc1ccc(OCc3ccccc3)cc1O)CCN2C | -8 | -9 |
| Cc1cccc(-c2nc3scc(CCNC(=O)/C=C/c4ccc5c(c4)OCO5)n3n2)c1 | 5 | 3 |

Whole records as entered above.
`OCc1ccc(-c2cccc(C(F)(F)F)n2)cc1` as listed: NPYLR7 ag: 3; NPYLR7 ag max-min: 4
`CN1CCC2(CC1)CN(Cc1ccc(OCc3ccccc3)cc1O)CCN2C` as listed: NPYLR7 ag: -8; NPYLR7 ag max-min: -9
`CC(=O)N1CCC(NC(=O)c2cc3c(C)nn(-c4ccccc4)c3s2)CC1` as listed: NPYLR7 ag: -16; NPYLR7 ag max-min: -15

In another format: 2 of the compounds above.
Sequence of screens: NPYLR7 ag | NPYLR7 ag max-min
CC(=O)N1CCC(NC(=O)c2cc3c(C)nn(-c4ccccc4)c3s2)CC1
→ -16 | -15
CN1CCC2(CC1)CN(Cc1ccc(OCc3ccccc3)cc1O)CCN2C
→ -8 | -9

The listing continues:
| compound | NPYLR7 ag | NPYLR7 ag max-min |
| --- | --- | --- |
| O=C(NCCCN1CCCC1=O)c1ccc(-c2ccc(Cl)cc2)s1 | 12 | 6 |
| CCCn1c(=O)c2c(nc3n(-c4ccc(S(N)(=O)=O)cc4)c(C)cn23)n(C)c1=O | 4 | 3 |
| COc1ccccc1-n1c(SCC(=O)N2CCNC2=O)nc2cc(Cl)ccc2c1=O | 0 | -5 |
| Cc1noc(Cl)c1CCC(=O)NCCCCn1ccnc1C | 0 | -1 |
| CCOC(=O)c1cccnc1-c1cnc2ccccc2c1 | 5 | -5 |
| Cc1n[nH]c(C)c1CCn1ccnc1-c1ccc(-n2ccnc2)cc1 | 5 | -1 |
| O=C(O)C1C2C=CC(C2)C1C(=O)NCCCn1ccnc1 (centres undefined) | 4 | 1 |
| CC(C)CCNC(=O)C1(C)CCN1Cc1ccc(-c2ccccc2)o1 (centres undefined) | 4 | -2 |
| CCN1Cc2ccccc2CC1C(=O)NCCSc1nnnn1C (centres undefined) | 4 | 0 |
| COCCCN(CC(=O)N(CCOC)Cc1cccn1C)C(=O)Nc1ccc(Br)cc1 | -4 | 2 |
| COc1ccc(C2=NOC(CN(Cc3ccc(C(F)(F)F)cc3)C(=O)NC(C)C)C2)cc1OC (centres undefined) | 3 | 12 |
| Cc1ccc(CN(Cc2ccc(F)cc2)C(=O)CNCCN2CCCCC2)s1 | 33 | 33 |
| Cc1cccc(C)c1NC(=O)N(Cc1ccccc1)C(C)c1nc2cc(Cl)ccc2c(=O)[nH]1 (centres undefined) | 8 | 18 |
| CC(C)N1CC(NC(=O)Nc2nnc(C(C)(C)C)s2)CC1=O (centres undefined) | -3 | 0 |
| O=C(CN1C(=O)CSC1c1ccc(Cl)c(Cl)c1)N1CCOCC1 (centres undefined) | 27 | 29 |
| COc1ccc2nc(-c3ccc(C)c(NC(=O)c4ccco4)c3)cn2n1 | -8 | -14 |
| CCc1ccc(CNCCNCC(C)O)cc1 (centres undefined) | -17 | -20 |
| O=C(Nc1sc2c(c1C(=O)N1CCOCC1)CCCC2)c1ccc(OC(F)F)cc1 | -2 | -2 |
| O=C(NCc1cnn(Cc2ccccc2)c1)c1ccccc1C1CCNC1 (centres undefined) | 3 | 1 |
| CCOC(=O)c1ccc(N=Nc2c(C)[nH]n(-c3nc(-c4ccc(C)cc4)cs3)c2=O)cc1 | 5 | 7 |
| Cc1ccc(C2=NN(c3ccc(/C=N\NC(=O)c4ccncc4)cc3)CC2)cc1 | -10 | -12 |
| FC(F)(F)c1ccc(N2CC(c3ccncc3)C2)nc1 | 7 | 3 |
| COc1cc(Br)c(NC(=O)C(=O)Nc2cnn(C(C)C)c2)cc1OC | 0 | 0 |
| CCOC(=O)CNC(=O)COc1coc(CN2CCCc3ccccc32)cc1=O | -1 | -2 |
| CC(NC(=O)c1ccc(Cl)o1)c1ccccn1 (centres undefined) | -1 | -3 |
| Nc1ncc(C2CC(=O)Nc3cc4c(cc32)CCc2ccccc2N4)s1 (centres undefined) | 0 | -2 |
| Fc1cccc(CNCC2CC(c3ccccc3Cl)=NO2)c1 (centres undefined) | 0 | -5 |
| C(=N/Nc1nc(N2CCCCC2)nc(N2CCCCC2)n1)/c1cccnc1 | -12 | -18 |
| Cn1cnc2cc(NCc3ccccc3O)ccc21 | 4 | 2 |
